From PubChem
CSC inhib – cancer stem cell viability inhibitors, primary screen, luminescence; cancer stem cell-like cells viability; inhibition, % at 7.5 µM; 300,000 tested, 1.1% active;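 active = mean at 75% or more and at least half the replicates too; inconclusive = mean and replicates disagree; tested in HMLE shEcad cells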;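 also: 0% = median of negative and 100% = median of positive control wells; the first replicate is given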
MT1-MMP act inh – blockers of MT1-MMP proenzyme processing, primary screen, HT1080 RFP-PRO-GFP cells, GFP/RFP fluorescence; 360,000 tested, 0.061% active; GFP/RFP ratio fluorescence, overnight; percent of plate control window, DMSO zero; Matrix metalloproteinase-14 (Homo sapiens), P50281; GFP/RFP ratio change, % at 20 µM;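 active = GFP/RFP ratio change of at least 30% with cell ATP level not reduced by more than half and red fluorescence within 50% of control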; also: strong numbers were not always called active
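Material: RFP-PRO-GFP reporter HT1080 cells. Dosing: single-point 20 µM compound, 1% DMSO. Controls: DMSO and RFP-L50D-GFP cell wells. Timing: cells overnight before dosing, compound overnight, 37 °C, 5% CO2. Measure: GFP/RFP fluorescence ratio.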
UUG fidelity – modulators of yeast start codon fidelity, primary screen, whole organism, S. cerevisiae, single point, plate reader. S. cerevisiae UUG-firefly luciferase reporter, luminescence/redox ratio. activity score, % at 18.7 µM. 350,000 tested, 0.13% active;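 active = replicate mean at a twofold rise or more, about +100% in these data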;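 also: firefly luciferase made from a UUG start codon reports start codon fidelity; reporter light over untreated wells divided by growth signal over untreated wells; some hits fall short of that in this replicate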
Rce1 inh – yeast Rce1p protease inhibitors, primary screen, biochemical, fluorescence, cell-free homogeneous | yeast membranes, quenched prenylated peptide cleavage fluorescence | calls only | 290,000 tested, 0.27% active;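 active = fall in fluorescence gain of 50% or more versus controls, with final raw signal at or below 3038400; inconclusive = same 50% fall but final raw signal above 3038400; inactive = fall in fluorescence gain under 50%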;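 also: plate controls were neutral control wells for no effect and wells lacking membranes for full effect; tested at 10 µM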
Env fusion inh – inhibitors of HIV-1 Env-driven cell-cell fusion, primary screen, HeLa-JRFL effector, CEM21 target cells, luciferase; inhibition, % at 12.3 µM; 360,000 tested, 1.1% active;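 active = mean replicate inhibition score of at least 50 and every replicate individually at or above 50; inconclusive = only one of the two criteria met; inactive = mean below 50 and not all replicates reaching 50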;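 also: 0% = plate neutral controls and 100% = maraviroc near 300 nM; one replicate is shown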
eIF4H FP inh – human eIF4H binding inhibitors, primary screen, translation initiation inhibitor project, biochemical, uHTS, fluorescence polarization. Eukaryotic translation initiation factor 4H (Homo sapiens), Q15056. eIF4H fluorescence polarization binding assay. inhibition, % at 35 µM. 290,000 tested, 0.94% active. AID 2012, 2009;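 active = 50% or more with normal probe brightness, or confirmed in later tests; inconclusive = above 50% with abnormal brightness, or retests that disagree; inactive = below 50% or failed in later tests; about a fifth of its hits are not listed in these tables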;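 also: calls also rest on retests at 20 µM and on dose response follow-up; 0% = protein and probe with vehicle and 100% = probe without protein; strong numbers were not always called active; many hits fall short of the cut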
PABP FP inh – PABP poly(A) RNA binding inhibitors, primary screen, biochemical, fluorescence polarization, uHTS; Polyadenylate-binding protein 1 (Homo sapiens), P11940; inhibition, % at 35 µM; 290,000 tested, 1% active; AID 2014, 2009;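 active = 50% or more with normal probe brightness, or confirmed in later tests; inconclusive = above 50% with abnormal brightness, or retests that disagree; inactive = below 50% or failed in later tests; about a fifth of its hits are not listed in these tables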;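 also: calls also rest on retests at 20 µM and on dose response follow-up; controls were probe without protein and protein plus probe with vehicle; some compounds called inactive have numbers as strong as hits; many hits fall short of the cut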
Target sequence (P11940 whole entry, looked up): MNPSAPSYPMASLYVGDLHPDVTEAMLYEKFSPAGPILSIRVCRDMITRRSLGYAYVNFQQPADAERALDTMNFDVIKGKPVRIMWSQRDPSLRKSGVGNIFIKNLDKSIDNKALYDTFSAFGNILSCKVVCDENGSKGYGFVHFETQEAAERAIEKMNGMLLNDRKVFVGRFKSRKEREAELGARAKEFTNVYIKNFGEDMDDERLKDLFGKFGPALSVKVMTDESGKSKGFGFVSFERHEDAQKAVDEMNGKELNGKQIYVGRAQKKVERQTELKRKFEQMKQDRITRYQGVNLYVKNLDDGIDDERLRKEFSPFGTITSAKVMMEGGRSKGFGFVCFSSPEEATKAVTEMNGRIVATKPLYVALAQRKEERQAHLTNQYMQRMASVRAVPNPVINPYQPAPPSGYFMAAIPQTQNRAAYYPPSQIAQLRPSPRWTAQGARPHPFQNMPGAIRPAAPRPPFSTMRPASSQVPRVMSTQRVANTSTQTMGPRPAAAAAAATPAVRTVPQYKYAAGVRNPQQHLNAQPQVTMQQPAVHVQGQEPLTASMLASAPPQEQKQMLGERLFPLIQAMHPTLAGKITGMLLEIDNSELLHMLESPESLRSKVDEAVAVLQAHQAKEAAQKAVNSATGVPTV
eIF4H FP inh retest – also measured in eIF4H FP inh; calls as there; inhibition, %; compound at 20 µM; confirmation average;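 mean of two retest wells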
PABP FP inh retest – second read-out of PABP FP inh, no call of its own (marks repeat the call); inhibition, %; compound at 20 µM; confirmation repeats;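 mean of two retest wells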
MT1-MMP act inh RFP – second read-out of MT1-MMP act inh, no call of its own (marks repeat the call); RFP signal change, %; measured here: RFP expression control read;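 0 = vehicle wells; hits needed this value within 50% of zero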
Numbers without * were called inactive; i = inactive; ? = inconclusive; . = no result given. A portion of the library, so the mix of outcomes need not match the whole.

SMILES	CSC inhib	MT1-MMP act inh	MT1-MMP act inh RFP	UUG fidelity	Rce1 inh	Env fusion inh	eIF4H FP inh	PABP FP inh	others
Cc1ccc(S(=O)(=O)NC(=O)NC(C)(C)C)cc1	-7	3	3	-23	i	-60	3	-2
OC(CN1CCCCC1)CN1CCCCC1	6	1	1	.	i	10	-10	1
Cc1ccccc1CNc1ccc(C(CC(N)=O)NC(=O)c2ccccc2)cc1[N+](=O)[O-] (stereo unspecified)	78*	14	-7	-15	i	.	-16	-6
COc1ccc(CNC(=O)c2ccccc2SC)cc1	6	2	-2	-21	i	.	-9	10
COC(=O)C[C@H](NC(=O)Cn1cnc2c(SC)nc(N)nc21)C(=O)OC	1	.	.	-13	.	-14	.	.
COc1ccccc1NC(=O)CN1C(=O)COc2ccc(S(=O)(=O)N3CCCCCC3)cc21	-9	2	2	-15	i	-1	-9	-5
CCCC(=O)Nc1ccc(Cl)c(NC(=S)NC(=O)C(C)C)c1	1	3	-1	.	i	14	-2	5
CC(C(=O)Nc1ccc(F)c(F)c1F)N(C)CCOc1ccccc1 (stereo unspecified)	2	-1	1	-17	i	4	-7	-4
CC[C@]12c3[nH]c4ccccc4c3CCN1C(=O)C(CC(=O)NCCCn1ccnc1)C[C@@H]2C(=O)N1CCN(C(=O)C2CC2)CC1 (stereo partly specified)	-7	-1	4	-11	.	-3	.	.
CC(C)(C)c1nc2ccccc2[nH]1	-1	-5	0	-10	i	9	5	8
CCOC(=O)c1sc(N)c(C#N)c1COC(=O)C1=COCCO1	.	-10	-2	-15	.	-1	.	.
CCCCCCCCCCCCOC1OC(CO)C(O)C(O)C1NC(C)=O (stereo unspecified)	0	3	-1	-27	i	.	2	-1
Cc1ccccc1C(=O)Nc1ccc(-c2nnc(SC(C)C(=O)O)n2C)cc1 (stereo unspecified)	-19	0	2	-14	i	-3	8	19
S=c1[nH]nc(-c2cccnc2)n1/N=C/C(Cl)=C\c1ccccc1	9	5	-13	-18	i	.	8	8
COc1cc(OC)c(NC(C)C(=O)NCc2ccccc2)cc1Cl (stereo unspecified)	-5	0	2	.	i	-1	-7	8
COc1cccc(Oc2ccc(C(F)(F)F)cc2NC(=O)CN2C(=O)NC3(CCCC3)C2=O)c1	34	3	0	6	.	.	.	.
Cc1c(Cl)cccc1NC(=O)CN1CCC(C(O)(c2ccccc2)c2ccccc2)CC1	30	-11	-11	21	i	-57	-5	-8
C/C(=N/NC(=O)c1ccncc1)c1ccc2c(c1)OCO2	-6	1	3	-16	i	-13	3	-1
CCOC(=O)N1CCC(N2Cc3cccc(C(=O)Nc4ccc(OCC)cc4)c3C2=O)CC1	.	-10	-12	-8	i	5	-1	-1
O=C(c1ccc(CNS(=O)(=O)c2cccc(Cl)c2)cc1)N1CCCCC1	29	0	-9	-15	i	-10	3	8
COc1ccc(/C=N/N2CCOCC2)cc1OCc1ccccc1	-13	1	3	-6	.	4	-10	1
Clc1cccc(CSc2nnc([C@@H]3CCCN3)o2)c1	-15	-1	-1	-20	i	20	0	18
NS(=O)(=O)c1ccc(CCNC(=O)COC(=O)/C=C/c2ccc(Cl)cc2)cc1	-1	2	4	.	i	2	2	-1
COc1ccc(OC)c(N/C(=N/c2nc(C)cc(C)n2)NC(C)=O)c1	-3	1	-3	.	i	13	-12	2
Cc1ccc(C2C(C#N)=C(N)OC3=C2C(=O)CCC3)s1 (stereo unspecified)	-19	-2	4	-9	i	-4	54	21	eIF4H FP inh retest=-1;PABP FP inh retest=10
Continuation:
SMILES	CSC inhib	MT1-MMP act inh	MT1-MMP act inh RFP	UUG fidelity	Rce1 inh	Env fusion inh	eIF4H FP inh	PABP FP inh	others
COC(=O)c1cc(CSc2nnc(-c3ccccc3)c(-c3ccccc3)n2)oc1C	28	-14	-25	-14	i	.	18	-10
O=C(C1CCCN1S(=O)(=O)c1ccc(Br)cc1)N1CCOCC1 (stereo unspecified)	-3	-1	0	.	i	3	-1	7
Cc1cc(C)nc(N2CCC(C(=O)Nc3nnc(C)s3)CC2)n1	-12	-4	1	-3	i	-5	-4	1
COc1ccc(CCNC(=O)c2ccc(Cl)c(S(=O)(=O)N(C)c3ccccc3)c2)cc1	-4	-15	-30	-6	i	35	-4	-4
COc1ccc(S(=O)(=O)N2CCN(CCO)CC2)cc1-c1nnc2c3ccccc3c(C)nn12	-16	-2	-3	-12	i	-9	2	-1
Cc1cc(NC(=O)CSc2ccc3nnc(CCNS(=O)(=O)c4ccccc4)n3n2)no1	3	3	3	-12	i	3	-4	-12
Cc1ccc(N(C(=O)C(F)(F)F)C(C(=O)NC2CCCCC2)c2cccs2)cc1C (stereo unspecified)	.	4	4	4	i	.	-4	2
COc1cccc(CC2(CO)CCN(Cc3ccc4cccc(F)c4n3)CC2)c1	-7	-7	-1	.	i	15	-7	-6
COc1ccc(N2CC(C(=O)N[C@@H](C)C(=O)N3CCCCC3)CC2=O)cc1 (stereo partly specified)	-11	1	5	-7	i	6	.	.
O=C(CCc1nc2ccccc2c(=O)[nH]1)Nc1cc(C(F)(F)F)ccc1N1CCCC1	-6	-8	-1	-25	.	.	.	.
CCN(CC)c1ncnc2c1ncn2[C@H]1CN(Cc2cccs2)C[C@@H](CO)O1	.	2	2	4	.	-3	.	.
N#CCCN1CCN(S(=O)(=O)c2ccc(S(=O)(=O)N3CCCCCC3)cc2)CC1	.	3	4	-12	i	18	-3	70	eIF4H FP inh retest=-8;PABP FP inh retest=2
COC(=O)c1ccc(Oc2nc(SC)nc(N(C)C)n2)cc1	34	1	1	-13	i	-6	5	3
COc1cc([N+](=O)[O-])cc2sc(NC(C)=O)nc12	-3	-9	-6	.	i	4	-10	-1
CC1Nc2ncnc(N3CCN(c4ccccc4)CC3)c2N(Cc2ccc(Cl)cc2)C1=O (stereo unspecified)	3	0	-7	-2	i	-2	.	.
COC(=O)C1=CNC=C(C(=O)OC)C1c1ccc(C(=O)OC)cc1	2	5	8	-7	?	-75	1	4
CCCCNC(=O)CSc1nc2ccsc2c(=O)n1CCCC(=O)NCCc1ccc(S(N)(=O)=O)cc1	-14	2	1	-1	i	8	-4	2
CCOc1ccc(CCNC(=O)c2ccc(CS(=O)Cc3ccccc3Cl)o2)cc1 (stereo unspecified)	-10	0	-5	8	i	0	-4	-4
COc1ccc(CN2CCN(CCCc3ccccc3)C(CCO)C2)cc1OC (stereo unspecified)	24	0	-6	-7	i	10	6	-8
O=C(Nc1ccc(S(=O)(=O)Nc2ncccn2)cc1)c1ccc(Br)s1	.	16	4	30	.	12	5	1
CC(=O)O[C@@]1(C)C[C@@H](O)[C@]2(O)C=CO[C@@H](O[C@@H]3O[C@H](CO)[C@@H](O)[C@H](O)[C@H]3O)[C@@H]21	-6	0	4	-19	.	-14	.	.
COc1cc(/C=C(\C(=O)O)c2ccc(S(=O)(=O)N3CCCC3)s2)ccc1OCCC(C)C	.	-9	3	-5	.	-2	.	.
Cc1ccccc1NC(=O)C1C2C=CC(C3CC23)C1C(=O)O (stereo unspecified)	13	2	4	.	i	1	0	1
COc1ccc(Nc2ccc(S(=O)(=O)N3CCCCC3)cc2[N+](=O)[O-])cc1Cl	-13	5	-14	-16	i	.	5	-6
Cc1ccc(C(=O)COC(=O)CNC(=O)c2ccc(Br)o2)cc1[N+](=O)[O-]	2	3	0	-2	i	4	-10	-11
(next part)
SMILES	CSC inhib	MT1-MMP act inh	MT1-MMP act inh RFP	UUG fidelity	Rce1 inh	Env fusion inh	eIF4H FP inh	PABP FP inh	others
Cc1cc(C=C2C(=O)CCCC2=O)c(C)n1-c1ccccc1	-8	12	4	.	i	9	?	-10
COc1ccc(/[N+]([O-])=C/c2ccoc2)cc1	15	-1	8	-36	.	.	.	.
CC1C(=O)N2CCCc3cc(S(=O)(=O)N(C)CCC#N)cc1c32 (stereo unspecified)	-7	-1	0	-2	i	-8	-11	8
COc1ccc(-c2cc3c(=O)n(CC(=O)N4CCCCC4)ncn3n2)cc1	0	2	-2	-21	i	3	-6	1
COc1cc(-c2noc(CCCC(=O)Nc3cccnc3)n2)cc(OC)c1OC	5	5	-1	.	i	2	1	-4
Cc1nn(-c2ccccc2)c(NC(=O)C(C)C)c(-c2ccccc2)c1=O	-7	3	3	-4	i	18	3	8
O=c1cc(C(F)(F)F)[nH]c2ccc(C(F)(F)F)cc12	32	11	-29	.	i	3	5	0
CCN(CC)CCN1C(=O)C(=O)/C(=C(/O)c2ccc(F)cc2)C1c1ccncc1 (stereo unspecified)	14	4	5	-16	i	-11	0	3
CC(NC(=O)C1CCCN(S(=O)(=O)c2cccs2)C1)c1ccccc1 (stereo unspecified)	-12	0	2	-26	i	-23	-3	-13
CCOC(=O)COc1cccc2c(=O)n(CC(=O)N3CCC(C)CC3)ccc12	-4	5	5	-9	i	0	1	-11
O=c1oc2ccccc2c(N2CCCCC2)c1CN1CCCC1	15	4	3	-11	i	-49	-3	1
O=C1CSC(=S)N1/N=C/c1ccc(O)c([N+](=O)[O-])c1	.	4	-1	.	.	.	55	-2	eIF4H FP inh retest=-3;PABP FP inh retest=1
Cc1ccc(NC(=O)/C(=C/c2ccncc2)NC(=O)c2ccccc2)cc1	-2	2	4	-9	i	-12	-15	-5
O=C(CN1CCN(Cc2ccccc2)CC1)Nc1cccc(Cl)c1	-10	3	2	-9	i	26	-4	-4
CCc1nc(C)cn1S(=O)(=O)c1cc(Br)c(C)cc1OC	1	4	3	0	i	.	-10	11
Cc1ccc(N2CC(C(=O)OCc3ccccc3)CC2=O)cc1 (stereo unspecified)	-10	2	1	-18	i	.	-1	12
CCN(C[C@H]1N[C@@](Cc2ccccc2)(C(=O)OC)[C@H]2C(=O)N(Cc3ccccc3)C(=O)[C@@H]12)S(=O)(=O)c1ccc(OC(F)(F)F)cc1	32	1	-6	-11	.	-7	.	.
CCn1cc(-c2nnnn2-c2ccc(Cl)cc2)c(=O)c2ccccc21	-18	-4	4	-15	i	-49	-6	9
CCC(CC)NC(=O)C1CCN(c2ccc(S(=O)(=O)N3CCOCC3)cc2[N+](=O)[O-])CC1	0	3	-2	-7	.	18	.	.
COc1ccc(NC(=O)CC2C(=O)OCC3CCCCN32)cc1Cl (stereo unspecified)	4	-1	-1	2	i	-4	16	-8
COc1ccc(C)c2sc(=NC(=O)c3ccc(C(C)=O)cc3)n(C)c12	13	-1	-2	.	i	-412	90*	57*
CC(C)C(=O)NNC(=O)c1c(O)c2ccccc2[nH]c1=O	.	2	7	-5	i	-42	-3	0
CCOC(=O)COc1nc(C)cc(C(F)(F)F)c1C#N	-10	-12	2	-10	i	4	6	-1

Arranged by count of non-hydrogen atoms (low to high): 3 of the compounds above.
SMILES	CSC inhib	MT1-MMP act inh	MT1-MMP act inh RFP	UUG fidelity	Rce1 inh	Env fusion inh	eIF4H FP inh	PABP FP inh	others
Cc1cc(C=C2C(=O)CCCC2=O)c(C)n1-c1ccccc1	-8	12	4	.	i	9	?	-10
COc1ccc(NC(=O)CC2C(=O)OCC3CCCCN32)cc1Cl (stereo unspecified)	4	-1	-1	2	i	-4	16	-8
CCN(CC)CCN1C(=O)C(=O)/C(=C(/O)c2ccc(F)cc2)C1c1ccncc1 (stereo unspecified)	14	4	5	-16	i	-11	0	3
